# From PubChem BioAssay
# PINK1 expr mod – modulators of PINK1 expression | PINK1 immunofluorescence, high-content cytometry, 24 h | AID 624263 | actives 0.2% (n = 410,000) | Potency, µM (doses to about 76.6 µM), for the others: top-dose activation (PINK1 increase), hits mostly activators; active = well fitted activation curve with a large enough effect; inconclusive = small, poorly fitted or top-dose-only effect; inactive = flat fitted curve, though single readings scatter; cell line not stated here;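 further: potency means the concentration at half of the fitted maximal effect; % of control where 0% means no effect; nearly all actives have a fitted effect of over 65% in size; a mitochondrial uncoupler was the plate control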
#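 PINK1 protein level read as immunofluorescence by microplate cytometer in a fixed, stained stable cell line after 24 h exposure to five compound concentrations, with CCCP as control.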
# TRPML1 agonist – agonists of human TRPML1 channel | TRPML1-expressing cells, Ca2+ dye fluorescence, FDSS; host cell line not named in the record; reference of the full effect not given here | AID 624414 | Q9GZU1 | activation, % (concentration not given with the values) | actives 0.12% (n = 410,000); in the data active = activation above about 50%; inconclusive = about 30% to 50%; inactive = below about 30%; further: 0% is about no effect; the text of the record puts the active cut at 80%
#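 Tetracycline-induced TRPML1-DL cells are seeded and incubated overnight before loading with a no-wash Ca2+ dye and quencher. Agonist activity is taken from the 110 s fluorescence read following compound pin-transfer on an FDSS, before EC80 54-4 challenge.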
# CtBP-E1A blk – CtBP/E1A binding inhibition; actives 0.49% (n = 340,000); AlphaScreen GST-E1A/His-CtBP binding, 1536-well; hits give low values; control for the full effect not named in the record; activity change, % (test concentration not listed); in the data active means activity change below about -65%; inconclusive means about -30% to -65%; inactive means above about -30%; further: on the % scale 0 is the no-effect control and ±100 the full control effect; compound concentration not given in the record
#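 AlphaScreen with 125 nM GST-E1A and 125 nM His-CtBP (5X stocks) in Tris pH 8.0, 300 mM NaCl, BSA, Tween 20, TCEP. Compounds preincubated 2 h at 37 deg C, then glutathione donor/nickel acceptor beads added for 1 h at 37 deg C in dark.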
# D2 potentiator – positive allosteric modulators of human D2 dopamine receptor | P14416 | DiscoveRx D2 beta-arrestin cells, luminescence, 90 min; 100% = 57 uM dopamine signal | potentiation, % (no concentration beside the values) | actives 0.23% (n = 360,000) | AID 624464; active = potentiation of 50% or more; inconclusive = 30% to 50%; inactive = 30% or less;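 further: compound concentration not given in the record; tested on top of an EC20 dose of dopamine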
#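 PathHunter beta-arrestin assay in DiscoveRx D2 cells. Compounds were added with an EC20 of dopamine (50 nM final) for 90 min at 37 deg C. Luminescence was read 1 h after detection reagent, with 57 uM dopamine as the EC100 control.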
# Six1-Eya2 blk – blocks human Six1 binding to Eya2 | Q15475+O00167 | AlphaScreen GST-Six1/His-Eya2 binding, biochemical; hits give low values; control for the full effect not named in the record | activity change, % (test concentration not listed) | actives 0.56% (n = 360,000); in the data active = activity change below about -65%; inconclusive = about -30% to -65%; inactive = above about -30%; further: on the % scale 0 is the no-effect control and ±100 the full control effect; compound concentration not given in the record
# Target sequence (O00167 whole entry, looked up): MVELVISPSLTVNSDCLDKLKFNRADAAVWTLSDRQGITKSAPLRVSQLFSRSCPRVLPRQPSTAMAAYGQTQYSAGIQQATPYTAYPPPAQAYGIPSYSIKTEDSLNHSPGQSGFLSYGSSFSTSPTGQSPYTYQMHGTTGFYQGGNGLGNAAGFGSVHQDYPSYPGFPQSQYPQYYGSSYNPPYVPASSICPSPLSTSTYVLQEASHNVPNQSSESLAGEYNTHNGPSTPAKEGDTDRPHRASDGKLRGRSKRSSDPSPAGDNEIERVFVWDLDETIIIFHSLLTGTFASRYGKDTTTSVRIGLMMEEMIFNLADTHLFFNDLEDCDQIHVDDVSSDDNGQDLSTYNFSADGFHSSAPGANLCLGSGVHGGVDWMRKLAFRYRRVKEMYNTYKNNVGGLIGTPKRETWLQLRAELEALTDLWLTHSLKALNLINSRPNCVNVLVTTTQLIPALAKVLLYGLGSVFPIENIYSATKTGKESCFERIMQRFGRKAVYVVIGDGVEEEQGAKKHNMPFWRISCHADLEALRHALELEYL
# Target sequence (Q15475 whole entry, looked up): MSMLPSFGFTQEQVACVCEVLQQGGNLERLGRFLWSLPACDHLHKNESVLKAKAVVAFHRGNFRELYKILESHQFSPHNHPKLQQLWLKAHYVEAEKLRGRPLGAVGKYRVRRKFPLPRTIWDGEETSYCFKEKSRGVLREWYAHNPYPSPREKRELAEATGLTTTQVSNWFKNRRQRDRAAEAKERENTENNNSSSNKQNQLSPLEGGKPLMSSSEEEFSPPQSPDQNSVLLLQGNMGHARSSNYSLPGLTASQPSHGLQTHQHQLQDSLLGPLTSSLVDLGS
#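 Six1/Eya2 binding was read as AlphaScreen signal after compounds were pinned into GST-Six1 plus His-tagged Eya2 (5X stock 250/500 nM) in pH 8.0 Tris/NaCl/TCEP buffer, beads added, then incubated 1 h, 37 C, dark.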
# D2 agonist – activates the human D2 dopamine receptor | P14416 | DiscoveRx PathHunter D2 beta-arrestin, luminescence, 90 min; 100% = 57 uM dopamine signal | activation, % (test concentration not listed) | AID 624465 | actives 0.084% (n = 360,000); in the data active = activation above about 40%; inconclusive = about 15% to 40%; inactive = below about 15%; further: compound concentration not given in the record; the text of the record calls up to 30% inactive
#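 DiscoveRx PathHunter D2 beta-arrestin cells (2,100/well) attached overnight, then compound-stimulated 90 min at 37 C in HBSS/10 mM HEPES/0.1% Tween-20 buffer; beta-galactosidase complementation read by luminescence after 1 h at ambient temperature. Dopamine 57 uM final (EC100) as control.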
# An asterisk follows results filed as active; ? = inconclusive; . = no result given; & = joins results of further samples; [ ] = dose if it differs, or a comment. Not a hit list. Share with any hit: about 1.3%.
SMILES,PINK1 expr mod,TRPML1 agonist,CtBP-E1A blk,D2 potentiator,Six1-Eya2 blk,D2 agonist
C=CCOc1nc2c(c(=O)n(Cc3ccc(Cl)cc3)c(=O)n2C)n1C,7.5%,-0.9,5,-9,3,-2.7
NC(=O)CC(NC(=O)c1ccccc1)c1ccc(NCCc2ccc(Cl)cc2)c([N+](=O)[O-])c1 (configuration not stated),18%,0.3,-17,-12,-8,-3.5
COCCn1c(CNc2ccc(F)cc2)nnc1SCC(=O)Nc1ccc(OC)cc1OC,2.3%[38.3 µM],-0.4,-8,-8,-2,-0.4
CC(C)C[C@@H](CO)N1CCN(Cc2cccc(C#N)c2)CCC1=O,5.1%,-0.3&-0.2,7,-4,6,-2.7
COCCn1cc(C(=O)N2CCN(C)CC2)c2c3ccccc3n(C)c2c1=O,23%[38.3 µM],0.0,3,-5,0,0.9
CCn1c(SCC(=O)Nc2ccccc2)nc2ccccc2c1=O,2.0%,1.3,1,2,-4,6.1
Clc1ncccc1OCc1ccccc1,3.4%,-0.5,6,-1,16,-3.5
CCCCNC(=O)CCC(=O)Nc1ccc2nc(N3CCN(C)CC3)cc(C)c2c1,0.8%,0.4,.,-10,8,-4.6
COCCOC(=O)C1=C(C)NC2=C(C(=O)CC(C)(C)C2)C1c1ccc(N(C)C)cc1 (configuration not stated),.,0.6,8,4,-2,-0.7
CC1Cn2c(COc3ccccc3)nnc2S1 (configuration not stated),-0.4%,0.1,-2,-3,5,-3.0
O=C(Nc1ccccc1C(=O)O)c1cccc(NC(=O)c2ccc(Br)o2)c1,2.1%,0.4,-28,-4,0,-2.9
CC(C)(C)C1CCC(=NNC(=O)C(=O)NCc2cccnc2)CC1 (configuration not stated),0.5%,0.0,-3,0,10,-0.3
CCn1cc(S(=O)(=O)NCCc2ccccc2OC)cn1,2.8%,0.0,3,-6,-8,-2.8
O=C(c1ccccc1F)N1CCN(c2ccccn2)CC1,0.2%,0.4,-10,-2,6,4.9
Cc1ccc2cccc(NC(=S)NC(=O)c3c(Br)cnn3C)c2n1,13%,0.5,-3,5,-7,-6.2
CCOC(=O)CSc1n[nH]c(NS(=O)(=O)c2ccccc2C(F)(F)F)n1,3.8%,0.7,-17,-2,-6,1.7
N#Cc1nc(Cc2cccc3ccccc23)oc1NCc1ccc2c(c1)OCO2,-0.9%,-0.6,-22,3,-25,0.5
Cc1nnc(NC(=O)c2ccccc2C(=O)O)s1,-1.2%,-0.3,-7,-8,11,-0.5
O=C(O)c1cncc(SCc2ccccc2)n1,1.9%,0.3,5,0,-6,-4.0
O=C(NCCc1ccc(F)cc1)c1ccc2nccnc2c1,0.5%,-0.5,.,0,2,3.4
CCOc1ccccc1NS(=O)(=O)c1c(C)[nH]c(C)c1C(=O)N1CCCCC1,0.1%,-0.3,6,-7,-1,1.8
O=C1[C@H]2[C@@H](C3CC3)N3C(=O)CN(CC4CC4)C(=O)[C@@]3(Cc3ccccc3)[C@H]2C(=O)N1c1ccccc1,-1.0%,-1.0,5,-9,7,-3.2
CN(C)S(=O)(=O)c1ccc(NC(=O)CCCNC(=O)c2ccc(Cl)cc2)cc1,1.8%,-0.4,-2,-10,2,-3.2
CCc1nnc(NC(=O)CCC(=O)NCc2ccccc2Cl)s1,4.0%,-0.1,-7,-8,2,-9.6
O=C1CCC/C(=N/NC(=O)c2sc3ccccc3c2Cl)C1,13%,58*,-28,-9,?,-4.2

# Additional compounds
SMILES,PINK1 expr mod,TRPML1 agonist,CtBP-E1A blk,D2 potentiator,Six1-Eya2 blk,D2 agonist
COc1ccc(C2(C)NC(=O)N(CC(=O)Nc3ccc4c(c3)OCO4)C2=O)cc1OC (configuration not stated),1.8%,-0.5,2,-7,-1,-0.8
Cc1ccc(NC(=O)Nc2ccc3c(c2)N(C)C(=O)CS3)nc1,6.5%[38.3 µM],4.2,0,5,-3,9.9
O=C(OCc1nc2ccccc2s1)c1ccco1,1.7%,0.1,4,-1,4,-3.3
CC(=O)NO,0.8%,-0.4,1,6,-1,-3.4
O=C(Nc1ccc(S(=O)(=O)NC2=NCCCCC2)cc1)c1cccc(OC(F)F)c1,0.5%,0.0,4,-9,-12,-5.3
O=C1COc2ccc(C(=O)CSc3nnc(NCc4ccccc4)s3)cc2N1,4.1%,0.1,-19,-3,-16,0.5
Cc1csc(NC(=O)CSc2nc(C(C)C)nc3c2c(=O)n(C)c(=O)n3C)n1,-0.3%,-0.1,-1,0,1,2.2
O=C(CCl)Nc1cccc(S(=O)(=O)N2CCCCCC2)c1,-1.0%,1.0,3,-8,-3,-4.5
CC(C)CCC(CCNCc1ccccn1)c1ccc2c(c1)OCO2 (configuration not stated),3.0%,0.4,.,-20,0,-7.8
Cc1ccc(C)c(NC(=O)CN(C)C(=O)c2ccc(Cl)nc2)c1,0.5%,-0.2,-7,-9,-8,-3.2
COc1ccc(/C=N/n2c(-c3n[nH]c4c3CCC4)n[nH]c2=S)cc1OC,-2.5%,1.5,6,-22,4,0.9
Nc1cc(C(=O)O)ccc1Nc1ccc(F)c(F)c1,-0.1%,0.4,-5,?,-25,0.7
O=C(c1cc(COc2cccc(C(F)(F)F)c2)on1)N1CCC(Oc2cccnc2)CC1,-0.2%,-0.8,0,-17,-7,3.4
CCc1c(C)nc2[nH]nc(-c3ccccc3)n2c1=O,-2.0%,3.8,2,27,0,-1.4
O=C(Cn1cccc1)N1CCN(c2ccc(F)cc2)CC1,-0.8%,-0.1,5,-5,-8,1.7
COc1ccc(C(=O)Nc2cccc(C(=O)N3CCCC3)c2)cc1,1.5%[38.3 µM],-0.6,1,-11,-4,-0.5
CC1(CC(=O)Nc2ccccc2)NC(=S)N(c2ccccc2)N1 (configuration not stated),2.7%,0.1,11,-7,-8,-2.2
Cc1c(NC(=O)COc2ncnc3ccccc23)c(=O)n(-c2ccccc2)n1C,-1.6%,-0.5,1,-16,-6,-4.4
COc1ccc(NS(=O)(=O)c2cccc(C(=O)N3CCCC3)c2)cc1,2.5%,-0.3,-26,6,6,-1.5
O=C(CN1C(=O)C2CC=CCC2C1=O)Nc1nnc(SCc2ccc(Cl)cc2)s1 (configuration not stated),1.1%,-0.9,0,18,1,-4.0
COc1cccc(NC(=O)CN(C)C(=O)CNC(=O)c2sc3ccccc3c2Cl)c1,-1.7%,-0.6,-3,-3,-6,-1.6
Cc1cc(NC(=O)Nc2ccc(OCc3ccccc3)cc2)n(C)n1,8.8%,-0.2,-4,-3,-2,2.7
COCCn1nnnc1CN(CCc1ccccc1)Cc1cc2ccc(C)cc2[nH]c1=O,1.0%,0.4,3,-11,-2,-3.3
CCOC(=O)C(=O)Nc1cc([N+](=O)[O-])ccc1C,-1.4%,0.3,6,-5,8,-1.9
C#CCOCCOCCOCCNc1nc(N2CCOCC2)nc(N2CCN(C(=O)[C@H]([C@@H](C)CC)n3cc(CCCN=C(N)N)nn3)CC2)n1,-0.2%,-0.1,.,-15,-1,-3.9

# New compounds follow
SMILES,PINK1 expr mod,TRPML1 agonist,CtBP-E1A blk,D2 potentiator,Six1-Eya2 blk,D2 agonist
CC(C)NC(=O)c1cccc(NC(=O)CC2SC(N3CCCCC3)=NC2=O)c1 (configuration not stated),-1.2%,0.3,6,-10,2,0.5
Cc1oc2c(c(C)cc3oc(=O)c(CC(=O)NCC(=O)NCC(=O)NCC(C)O)c(C)c32)c1C (configuration not stated),-0.3%,3.7,-12,-6,-3,1.6
CCOC(=O)CN1C(=O)/C(=C/c2c(F)cccc2Cl)Oc2ccccc21,0.5%,4.2,60,1,28,7.6
COc1ccc(N(C(=O)CNC(=O)c2cccs2)C(C(=O)NCC2CCCO2)c2ccc(OC)c(OC)c2)cc1 (configuration not stated),1.7%,-0.3,5,-11,19,-2.8
COC(=O)c1c(C)[nH]c(C(=O)OCc2ccc(F)cc2)c1C,14%,1.2,-8,-4,-2,-5.0
CCCn1c(NC(=O)C2CCN(S(=O)(=O)c3cccs3)CC2)nc2ccccc21,1.0%,-1.1,-5,-23,-4,-2.3
O=C(Cn1cc2c(n1)CCCC2)NCc1cccc(Cl)c1,0.6%,1.5,5,-3,6,-5.6
COc1ccc(C)cc1NC(=O)CCC(=O)Nc1nnc(C2CCCCC2)s1,0.8%,-1.1,1,-5,-1,0.1
COc1ccc(C(=O)OCC(=O)Nc2ccc(Cl)cn2)cc1,1.9%,1.0,-18,-3,-4,-6.7
O=C(NCCO)c1cc(-c2cc(C(=O)NCCO)c3ccccc3n2)nc2ccccc12,-1.3%,-0.2,-12,-8,-22,2.3
Cc1ccc(CNC(=O)CS(=O)(=O)c2ccccc2)cc1,-0.5%,0.4,.,-10,3,-2.9
Cc1nc(NC(=O)c2cccc(-c3cc4ccccc4oc3=O)c2)ccc1Br,-1.1%,-0.4,-2,0,3,-7.4
O=c1nc(N2CCOCC2)nc2n1CCO2,0.7%,-0.7,6,13,0,-1.3
O=C(c1ccc(S(=O)(=O)N2CCCCCC2)cc1)N1CCN(c2ccccc2F)CC1,7.5%,0.7,2,11,-1,-0.1
O=C(/C=C/Nc1nccs1)C(F)(F)Cl,4.0%,0.2,-4,-10,10,-4.3
CCOC(=O)[C@]12CCC=C1N(Cc1ccc(Cl)cc1Cl)C(=O)[C@H](CC(=O)NCC1CCCCC1)C2,1.6%,-0.4,3,.,8,.
O=C(c1ccco1)N(Cc1ccc2c(c1)OCO2)Cc1cc2cc3c(cc2[nH]c1=O)OCO3,2.3%,.,23,-4,15,-2.2
Nc1ncnc2c1ncn2[C@@H]1O[C@H](C(=O)N(CCC2=CCCCC2)CC2CC2)[C@@H](O)[C@H]1O,2.7%,-0.2,2,-1,-6,7.1
CCOC(=O)N1CCN(C(=O)C2CCCN(S(=O)(=O)c3cccnc3)C2)CC1 (configuration not stated),-1.8%,1.2,1,-4,3,-2.0
COc1cc(C#Cc2c(-c3ccccc3OC)oc3ccccc23)cc(OC)c1,1.7%,0.6,23,-2,35,-7.9
Cc1nn(-c2ccccc2)c2nc(-c3cccs3)cc(C(=O)NN)c12,0.2%,-0.1,0,-5,2,-2.8
CC(=O)OCC(=O)[C@@]12OC(C)(C)O[C@@H]1CC1C3C[C@H](F)C4=CC(=O)C=CC4(C)[C@@]3(F)C(O)CC12C (some centres not stated),6.2%,0.1,2,0,0,-8.5

# Some of the entries above in a different format:
compound | PINK1 expr mod | TRPML1 agonist | CtBP-E1A blk | D2 potentiator | Six1-Eya2 blk | D2 agonist
O=C(/C=C/Nc1nccs1)C(F)(F)Cl | 4.0% | 0.2 | -4 | -10 | 10 | -4.3
COc1ccc(C(=O)OCC(=O)Nc2ccc(Cl)cn2)cc1 | 1.9% | 1.0 | -18 | -3 | -4 | -6.7

# Compounds listed so far that have a nitro group on carbon (2):
SMILES,PINK1 expr mod,TRPML1 agonist,CtBP-E1A blk,D2 potentiator,Six1-Eya2 blk,D2 agonist
NC(=O)CC(NC(=O)c1ccccc1)c1ccc(NCCc2ccc(Cl)cc2)c([N+](=O)[O-])c1 (configuration not stated),18%,0.3,-17,-12,-8,-3.5
CCOC(=O)C(=O)Nc1cc([N+](=O)[O-])ccc1C,-1.4%,0.3,6,-5,8,-1.9
